Lassa entry inh: blocks Lassa virus binding to or entry into cells. Lassa virus pseudotype entry inhibition, cell reporter; control for the full effect not named in the record. Potency, µM (highest dose often 37.9 µM), for inactives: top-dose activity change, negative = inhibition, most hits filed as inhibitors. 1.2% of 300,000 active. AID 540256; active means well fitted inhibition curve with a large enough effect; inconclusive means small, poorly fitted or top-dose-only effect, or effect the other way; inactive means flat fitted curve, though single readings scatter; tested in HEK293 cells; also: % is scaled to controls: 0 for no effect and ±100 for the full control effect; nearly all actives have a fitted effect of over 50% in size; luciferase read-out
NS1 function inh: influenza NS1 inhibition; S. cerevisiae slowed by influenza A NS1, growth recovery by OD600; Potency, µM (highest dose often 46.1 µM), for inactives: at the highest dose activity, positive = more growth; 0.4% of 270,000 active; AID 2326; active means well fitted rising curve with a large enough effect; inconclusive means small, poorly fitted or top-dose-only effect; inactive means no such curve, though single readings can be large or run the other way; also: nearly all actives have a fitted effect of over 50% in size
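A cell-based growth assay was used: compounds that relieve NS1-induced slow growth of budding yeast raise OD600. Assay medium was yeast nitrogen base with ammonium sulphate and -URA supplement, pH 6.0, with 2% galactose.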
SARS PLpro yeast: blocks SARS-CoV papain-like protease in a yeast assay; S. cerevisiae expressing SARS-CoV PLpro, growth rescue; control for the full effect not named in the record; 0.19% of 330,000 active; Potency, µM (highest dose often 32.9 µM), for the others: at the highest dose activity, positive = growth rescue; active means well fitted rising curve with a large enough effect; inconclusive means small, poorly fitted or top-dose-only effect; inactive means no such curve, though single readings can be large or run the other way; also: 0% is about no effect; nearly all actives have a fitted effect of over 55% in size; growth read by luminescence after 48 h
RE007 growth inh: less growth of the S. pombe RE007 Vpr strain; S. pombe RE007 Vpr strain, BacTiter-Glo ATP luminescence, 24 h; control for the full effect not named in the record; Potency, µM (highest dose often 92.2 µM), without a hit: at the highest dose activity change, negative = less growth; 0.21% of 360,000 active; AID 651644; active = well fitted falling curve with a large enough effect; inconclusive = small, poorly fitted or top-dose-only effect; inactive = no such curve, though single readings can be large or run the other way;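 also: % is scaled to controls: 0 for no effect and ±100 for the full control effect; nearly all actives have a fitted effect of over 50% in size; the assay follows cell death caused by Vpr and the record does not say whether a fall means rescue or toxicity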
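Fission yeast strain RE007, carrying one chromosomally integrated HIV-1 vpr copy, was seeded at OD 0.01 in PMG+AL medium with 23 nL pinned compound. After 24 h at 30 °C and 99% humidity, viability was read by BacTiter-Glo luminescence.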
StopGo reporter: lowers the luciferase signal of an FMDV 2A StopGo reporter; AID 1159524; 1.2% of 410,000 active; human cells with a luciferase reporter of 2A StopGo recoding; control for the full effect not named in the record; Potency, µM (highest dose often 57.9 µM), for the others: at the top dose signal change, negative = less light; active = well fitted falling curve with a large enough effect; inconclusive = small, poorly fitted or top-dose-only effect; inactive = no such curve, though single readings can be large or run the other way; tested in HEK293T cells; also: % is scaled to controls: 0 for no effect and ±100 for the full control effect; nearly all actives have a fitted effect of over 45% in size; luciferase light after 4 h
Cruzain noTriton: blocks cruzain activity in detergent-free assay; purified cruzain, Z-FR-AMC fluorescence, no detergent; Potency, µM, without a hit: max response, negative = inhibition, hits mostly inhibitors; 2.3% of 200,000 active; AID 1476;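 also: plate controls were enzyme without inhibitor for no effect and buffer without enzyme for full effect; nearly all actives have a fitted effect of over 40% in size; top concentration of the series not given in the record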
Target sequence (P25779 123-467 limits assumed): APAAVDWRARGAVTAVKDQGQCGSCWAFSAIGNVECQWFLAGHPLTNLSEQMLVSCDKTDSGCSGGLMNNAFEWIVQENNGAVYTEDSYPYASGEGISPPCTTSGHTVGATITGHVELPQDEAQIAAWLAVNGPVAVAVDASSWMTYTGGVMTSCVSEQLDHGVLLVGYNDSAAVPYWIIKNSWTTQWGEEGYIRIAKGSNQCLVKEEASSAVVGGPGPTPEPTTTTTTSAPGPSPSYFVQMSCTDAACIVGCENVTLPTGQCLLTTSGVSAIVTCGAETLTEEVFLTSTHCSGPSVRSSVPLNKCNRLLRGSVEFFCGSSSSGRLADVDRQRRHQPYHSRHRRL
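Purified cruzain at 1.5 nM, pre-incubated 15 min with compound at room temperature in 100 mM sodium acetate pH 5.5, 5 mM DTT, 0.00005% Triton X-100. Reaction started with 2 uM Z-FR-AMC; AMC fluorescence increase over 60 s gives rate.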
Marburg entry inh: inhibitors of Marburg virus binding or cell entry; 1.8% of 300,000 active; AID 540276; Potency, µM (highest dose often 37.8 µM), without a hit: top-dose activity change, negative = inhibition, hits mostly inhibitors; Marburg virus pseudotyped entry inhibition, cell reporter; control for the full effect not named in the record; about a third of the inactives were read at about 46 µM; active = well fitted inhibition curve with a large enough effect; inconclusive = small, poorly fitted or top-dose-only effect, or effect the other way; inactive = flat fitted curve, though single readings scatter; tested in HEK293 cells; about a fifth of its hits are not listed in these tables; also: % is scaled to controls: 0 for no effect and ±100 for the full control effect; luciferase read-out
Cruzain Triton: cruzain (T. cruzi) inhibition with detergent. purified cruzain, Z-FR-AMC fluorescence, 0.01% Triton. Potency, µM, inactives show max response, negative = inhibition, usual class: inhibitors. AID 1478. 0.43% of 200,000 active. P25779;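 also: plate controls were neutral wells for no effect and buffer without enzyme for full effect; nearly all actives have a fitted effect of over 40% in size; top concentration of the series not given in the record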
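Enzyme 1.5 nM, Z-FR-AMC 2 uM, NaOAc 100 mM pH 5.5, DTT 5 mM, Triton X-100 0.01%; 15 min RT compound preincubation; kinetic ex360/em450, 60 s delta.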
The depositor's hits bear a star; ? = inconclusive; · = not tested or not shown; & = joins results of further samples; [ ] = dose if it differs, or a comment. Unless noted, calls follow the shape of the dose curve; as a rule, active = well fitted curve in the direction sought with a large enough effect; inconclusive = small, poorly fitted or top-dose-only effect, or another doubt; inactive = no such curve, though single readings can be large; an effect the other way counts as inactive or inconclusive. Potency is read from the fitted curve at half-maximal effect.

compound	Lassa entry inh	NS1 function inh	SARS PLpro yeast	RE007 growth inh	StopGo reporter	Cruzain noTriton	Marburg entry inh	Cruzain Triton
CCC(C)NS(=O)(=O)c1ccc(NC(=O)CCC2CCCCC2)cc1 (stereo not given)	7%	5%	-10%	-14%	12%	4%	4%	6.4%
Cc1cc(C)cc(Nc2ccc(C(=O)O)cc2[N+](=O)[O-])c1	26%	-2%	-2%	3%	-5%	·	?	·
COc1ccc(CNC(=O)c2ccc3c(=O)n4c(nc3c2)CCCCC4)cc1OC	?	·	1%	-11%	?	·	?	·
COc1cccc2sc(N(Cc3cccnc3)C(=O)C3CCCCC3)nc12	?	·	·	·	-7%	?	·	-8.9%
COc1ccc(NC(=O)c2c(-c3ccccc3)noc2C)c(OC)c1	-2%	-10%	-5%	1%	·	12%	-25%	-3.4%
Cc1cc(-c2ccc(C)c(S(=O)(=O)N(C(C)C)C3CCCCC3)c2)on1	-20%[46.1 µM]	·	·	·	-25%	-6%	·	-7.4%
Cc1ccc(Cl)cc1NC(=O)C1CCN(C(=O)c2cnn(-c3ccccc3)c2-n2cccc2)CC1	3%[46.1 µM]	·	·	·	?	?	?	-7.0%
Cc1ccc(N2CCN(C(=O)NCc3noc4ccc(C)cc34)CC2)c(C)c1	-6%[46.1 µM]	·	·	·	-14%	5%	·	-7.7%
Cc1nonc1OCCNCc1c(C(=O)N2CCCCCCC2)nc2ccc(Cl)cn12	·	8%	0%	-13%	1%	·	·	·
CN(C)CCN(Cc1ccccc1)S(=O)(=O)c1ccc2[nH]c(=O)ccc2c1	2%[46.1 µM]	·	·	·	?	-8%	·	-1.5%
CN(Cc1nc(-c2cnccn2)no1)CC1CCN(Cc2ccccc2)CC1	·	3%	1%	-4%	-18%	·	·	·
Cc1ccc(-c2nc(C)sc2CC(=O)Nc2nnc(C)s2)cc1	19%	-7%	3%	19%	-8%	·	-13%	·
COc1ccccc1NC(=O)C1CC(C(C)C)OC1=O (stereo not given)	0%	·	·	8%	46%[activator]	·	?	·
O=C(COC(=O)c1ccco1)NC12CC3CC(CC(C3)C1)C2	11%	·	15%	0%	-11%	·	?	·
O=C(NCCc1ccccc1)C1CCN(Cc2cc3ccccc3n2Cc2cccc(Cl)c2)CC1	-4%[46.1 µM]	·	·	·	-15%	?	·	-1.7%
NC(=O)c1ccc(NC(=O)COC(=O)c2ccccc2Nc2ccccc2)cc1	-6%[46.1 µM]	·	0%	-10%	-4%	·	24%[46.1 µM]	·
O=C(NCc1ccccn1)c1ccccc1-c1ccccc1	3%	5%	0%	-12%	-12%	·	-14%	·
CCCC(O)(c1ccc(OC)cc1)C(CN1CCOCC1)c1ccccc1 (stereo not given)	-5%[46.1 µM]	·	1%	11%	-10%	·	?	·
O=C1CSC(=S)N1c1cccc(F)c1	·	14%	3%	-25%	?	·	·	·
C=CCc1cc(Cl)ccc1OCCCNC(C)C	?	-12%	-15%	-14%	-9%	1%	?	-1.6%
O=C(O)CCCNc1n[nH]c(=O)[nH]c1=O	?	11%	3%	-9%	-1%	·	3%[46.1 µM]	·
Cn1c(=O)c2c(nc(CN3CCOCC3)n2CCN2CCOCC2)n(C)c1=O	19%	-3%	3%	1%	13%	-2%	?	6.2%
Cc1cc(C)cc(Nc2cc(C)nc3nc(-c4ccco4)nn23)c1	-28%[46.1 µM]	·	·	·	?	-4%	·	-6.2%
Cc1ccc(SCC(=O)Nc2cccc(C)c2)cc1	·	-9%	-2%	12%	45%[activator]	·	·	·
COc1cc(NC(=O)[C@H](C)NC(=O)N2CCn3c2nc2ccccc23)cc(OC)c1	·	-19%	-5%	-16%	-11%	·	·	·
COCCn1c(SCC(=O)NCC2CCCO2)nc2c(c1=O)SCC2 (stereo not given)	1%	-1%	3%	-26%	-16%	·	26%	·
O=C(Cn1cc(SCc2ccccc2Cl)c2ccccc21)N1CCOCC1	?	-1%	-14%	26%	25%	?	?	-12%
Cc1cc(N=NC(=O)c2ccccc2)ccc1O	·	-1%	-1%	5%	13%	·	·	·
COc1ccc(NC(=O)COc2ccc(/C=N/O)cc2OC)cc1	22%	-5%	-4%	-4%	54%[activator]	·	-14%[46.1 µM]	·
CCOCCCNC(=O)C(NC(=O)c1ccc(=O)[nH]c1)c1ccc(Cl)cc1 (stereo not given)	·	-5%	1%	-3%	-6%	-4%	·	-2.7%
CC(C)CCNC(=O)NC(=O)CN1C(=O)NC2(CCCCC2)C1=O	-7%	9%	-15%	2%	-20%	14%	23%	1.1%
O=C(NC1CCCCC1)NC1CCN(S(=O)(=O)c2ccc3c(c2)OCCO3)CC1	5%	-3%	1%	-5%	9%	?	14%	3.1%
Cc1occc1-c1nnc(SCC(=O)c2ccc(F)cc2)o1	10%	-3%	-1%	-2%	24%	0%	2%	-1.2%
Cc1ccc(NC(=O)c2ccco2)c(NC(=O)c2ccccc2C)c1	?	1%	0%	-8%	4%	·	-2%[46.1 µM]	·
c1ccc(-c2nnc(OCc3cccnc3)c3ccccc23)cc1	1%	-48%	-1%	3%	-19%	·	·	·
O=c1[nH]c(C2CCCN(S(=O)(=O)c3ccccc3)C2)nc2c1nnn2Cc1ccccc1F (stereo not given)	-26%	-42%	5%	0%	-11%	0%	-23%&-23%	-5.0%
Cc1ccc(S(=O)(=O)c2c(C)cc(C)nc2Cl)cc1	6%	-4%	5%	-2%	-4%	-3%	14%	5.6%
COc1ccc2[nH]c(=O)c(CN(C3CCCCC3)C(c3nnnn3Cc3ccco3)C(C)C)cc2c1 (stereo not given)	-25%	11%	-2%	8%	10%	?	?	-24%
O=S1(=O)N=C(N/N=C/c2ccccn2)c2ccccc21	?	1%	22µM*	-1%	-13%	7%	-2%	9.6%
O=S(=O)(c1cccc(S(=O)(=O)N2CCN(c3ncccn3)CC2)c1)N1CCOCC1	-9%	-2%	0%	4%	-8%	18%	-5%[46.1 µM]	-2.7%

Looked up above.
In Cruzain noTriton, `O=c1[nH]c(C2CCCN(S(=O)(=O)c3ccccc3)C2)nc2c1nnn2Cc1ccccc1F` (stereo not given) has the entry 0%
In Marburg entry inh, `CC(C)CCNC(=O)NC(=O)CN1C(=O)NC2(CCCCC2)C1=O` has the entry 23%
In NS1 function inh, `c1ccc(-c2nnc(OCc3cccnc3)c3ccccc23)cc1` has the entry -48%

Going on with the list.
compound	Lassa entry inh	NS1 function inh	SARS PLpro yeast	RE007 growth inh	StopGo reporter	Cruzain noTriton	Marburg entry inh	Cruzain Triton
CCOC(=O)CC1=C(C(=O)OCC)C(c2cccs2)C(C#N)=C(N)O1 (stereo not given)	-5%	3%	·	-3%	?	-5%	?	-1.9%
Cc1c(C(=O)OCC(C)C)[nH]c2c1C(=O)CC(c1cccs1)C2 (stereo not given)	?	-2%	1%	-6%	-7%	-27%	?	2.5%
CCc1ccc2[nH]c(=O)c(C(c3nnnn3CCOC)N3CCN(c4ccccc4)CC3)cc2c1 (stereo not given)	-11%	-4%	1%	-5%	0%	?	1%&-7%	-3.8%
O=C(C(c1ccccc1)c1ccccc1)N1CCN(Cc2ccco2)CC1	11%	-9%	-13%	6%	·	9%	-21%	0.5%
Cc1ccc(NC(=O)CN(C)C2CCCCC2)cc1Br	-18%[46.1 µM]	1%	-1%	-17%	-19%	·	?	·
O=C(NC(=S)Nc1nc(-c2cccc([N+](=O)[O-])c2)cs1)c1ccccc1Cl	-1%[46.1 µM]	·	-3%	-11%	-16%	·	1%[46.1 µM]	·
O=C(Cc1ccccc1)NC(Nc1ccccc1)C(Cl)(Cl)Cl (stereo not given)	20%	-5%	-2%	-11%	-24%	1%	1%	4.4%
CC(=O)c1c(C)nn(CC(O)COc2ccc3c(c2)CCC3)c1C (stereo not given)	-18%	-7%	-5%	-3%	·	4%	0%	-5.2%
COc1ccc(CN2CCNC(=O)C2CC(=O)NCCc2c[nH]c3ccccc23)c(OC)c1 (stereo not given)	?	3%	-1%	-11%	4%	·	-5%[46.1 µM]	·
c1ccc(-c2cc3n(c2)CCc2ccccc2-3)cc1	?	0%	1%	-1%	74%[activator]	?	19%	-5.1%
COc1ccc(C2CC(c3ccc4ccccc4c3)=NN2C(=O)CN2C(=O)CCC2=O)cc1 (stereo not given)	?	·	1%	-21%	0%	·	?	·
NC(=O)C1CCN(c2oc(-c3ccccc3F)nc2S(=O)(=O)c2ccc(Cl)cc2)CC1	6%	-34%	-4%	49%	12%	?	-3%	-6.6%
CCCCC1CCC(C(=O)N(C)CC(=O)Nc2cccc(F)c2)CC1 (stereo not given)	-8%	-11%	7%	-12%	-24%	·	?	·
Cc1ccc(S(=O)(=O)N(CC(=O)N/N=C\c2cccs2)c2cccc3cccnc23)cc1	?	12%	-7%	·	-14%	-2%	-14%	-5.5%
Cc1ccccc1OCCn1nc(C(=O)O)c2ccccc2c1=O	4%	-15%	-1%	10%	?	16%	?	-4.8%
COc1ccc(-n2nnc3c(=O)n(CC(=O)NCC4CCCO4)cnc32)cc1 (stereo not given)	1%	14%	4%	-6%	-8%	-5%	17%	3.2%
